NS1 inh – inhibitors of influenza NS1 protein function; S. cerevisiae slowed by influenza A NS1, growth recovery by OD600; Potency, µM (top dose mostly 46.1 µM), without a hit: top-dose activity, positive = more growth; actives 0.4% (n = 270,000); AID 2326; active means well fitted rising curve with a large enough effect; inconclusive means small, poorly fitted or top-dose-only effect; inactive means no such curve, though single readings can be large or run the other way; also: nearly all actives have a fitted effect of over 50% in size
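Compounds were scored for reversing the slow growth caused by influenza A NS1 in S. cerevisiae, measured by optical density at 600 nm. Assay medium contained 2% galactose at pH 6.0; NS1-free yeast of the same strain were the positive control.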
Cruzain noTriton – blocks cruzain activity in detergent-free assay; actives 2.3% (n = 200,000); Potency, µM, for the others: max response, negative = inhibition, hits mostly inhibitors; P25779; purified cruzain, Z-FR-AMC fluorescence, no detergent; AID 1476;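 also: plate controls were enzyme without inhibitor for no effect and buffer without enzyme for full effect; nearly all actives have a fitted effect of over 40% in size; top concentration of the series not given in the record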
Target sequence (P25779 123-467 limits assumed): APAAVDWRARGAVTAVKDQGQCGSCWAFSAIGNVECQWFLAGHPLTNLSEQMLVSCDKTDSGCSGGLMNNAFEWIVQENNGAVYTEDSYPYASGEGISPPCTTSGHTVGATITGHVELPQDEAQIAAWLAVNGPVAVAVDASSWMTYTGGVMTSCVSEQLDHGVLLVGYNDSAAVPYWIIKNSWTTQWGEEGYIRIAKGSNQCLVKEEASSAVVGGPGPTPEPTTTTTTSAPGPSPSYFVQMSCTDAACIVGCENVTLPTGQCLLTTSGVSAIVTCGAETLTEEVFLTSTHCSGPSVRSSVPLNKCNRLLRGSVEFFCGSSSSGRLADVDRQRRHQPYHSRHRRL
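Purified cruzain at 1.5 nM, pre-incubated 15 min with compound at room temperature in 100 mM sodium acetate pH 5.5, 5 mM DTT, 0.00005% Triton X-100. Reaction started with 2 uM Z-FR-AMC; AMC fluorescence increase over 60 s gives rate.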
Lassa entry inh – blocks Lassa virus binding to or entry into cells | Potency, µM (top dose mostly 37.9 µM), for inactives: at the highest dose activity change, negative = inhibition, actives largely listed as inhibitors | actives 1.2% (n = 300,000) | Lassa virus pseudotype entry inhibition, cell reporter; control for the full effect not named in the record; active means well fitted inhibition curve with a large enough effect; inconclusive means small, poorly fitted or top-dose-only effect, or effect the other way; inactive means flat fitted curve, though single readings scatter; tested in HEK293 cells; also: % is scaled to controls: 0 for no effect and ±100 for the full control effect; nearly all actives have a fitted effect of over 50% in size; luciferase read-out
SARS PLP yeast – SARS-CoV PLP inhibition in yeast. Potency, µM (highest dose often 32.9 µM), for the others: at the highest dose activity, positive = growth rescue. actives 0.19% (n = 330,000). S. cerevisiae expressing SARS-CoV PLpro, growth rescue; control for the full effect not named in the record; active means well fitted rising curve with a large enough effect; inconclusive means small, poorly fitted or top-dose-only effect; inactive means no such curve, though single readings can be large or run the other way; also: 0% is about no effect; nearly all actives have a fitted effect of over 55% in size; growth read by luminescence after 48 h
2A StopGo – FMDV 2A StopGo reporter, luciferase signal. human cells with a luciferase reporter of 2A StopGo recoding; control for the full effect not named in the record. Potency, µM (highest dose often 57.9 µM), for the others: top-dose signal change, negative = less light. actives 1.2% (n = 410,000); active = well fitted falling curve with a large enough effect; inconclusive = small, poorly fitted or top-dose-only effect; inactive = no such curve, though single readings can be large or run the other way; tested in HEK293T cells; also: % is scaled to controls: 0 for no effect and ±100 for the full control effect; nearly all actives have a fitted effect of over 45% in size; luciferase light after 4 h
Cruzain inh Det – blocks cruzain activity in presence of Triton detergent. P25779. purified cruzain, Z-FR-AMC fluorescence, 0.01% Triton. Potency, µM, without a hit: max response, negative = inhibition, most hits filed as inhibitors. actives 0.43% (n = 200,000). AID 1478;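 also: plate controls were neutral wells for no effect and buffer without enzyme for full effect; nearly all actives have a fitted effect of over 40% in size; top concentration of the series not given in the record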
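Detergent-containing arm of a paired screen for aggregation-based inhibition: 0.01% Triton X-100 present. Cruzain at 1.5 nM cleaved 2 uM Z-FR-AMC at pH 5.5 with 5 mM DTT; AMC fluorescence gain over 60 s measured activity.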
Marburg entry inh – blocks Marburg virus binding to or entry into cells. Marburg virus pseudotyped entry inhibition, cell reporter; control for the full effect not named in the record; about a third of the inactives were read at about 46 µM. AID 540276. actives 1.8% (n = 300,000). Potency, µM (highest dose often 37.8 µM), for inactives: at the highest dose activity change, negative = inhibition, usual class: inhibitors; active = well fitted inhibition curve with a large enough effect; inconclusive = small, poorly fitted or top-dose-only effect, or effect the other way; inactive = flat fitted curve, though single readings scatter; tested in HEK293 cells; about a fifth of its hits are not listed in these tables; also: % is scaled to controls: 0 for no effect and ±100 for the full control effect; luciferase read-out
RE007 growth inh – less growth of the S. pombe RE007 Vpr strain; actives 0.21% (n = 360,000); S. pombe RE007 Vpr strain, BacTiter-Glo ATP luminescence, 24 h; control for the full effect not named in the record; Potency, µM (series often up to 92.2 µM), without a hit: at the highest dose activity change, negative = less growth; active = well fitted falling curve with a large enough effect; inconclusive = small, poorly fitted or top-dose-only effect; inactive = no such curve, though single readings can be large or run the other way;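 also: % is scaled to controls: 0 for no effect and ±100 for the full control effect; nearly all actives have a fitted effect of over 50% in size; the assay follows cell death caused by Vpr and the record does not say whether a fall means rescue or toxicity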
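Fission yeast strain RE007, carrying one chromosomally integrated HIV-1 vpr copy, was seeded at OD 0.01 in PMG+AL medium with 23 nL pinned compound. After 24 h at 30 °C and 99% humidity, viability was read by BacTiter-Glo luminescence.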
Active calls of the source: *; ? = inconclusive; . = not tested or not shown; [ ] = another dose, or the depositor's remark. Unless noted, calls follow the shape of the dose curve; as a rule, active = well fitted curve in the direction sought with a large enough effect; inconclusive = small, poorly fitted or top-dose-only effect, or another doubt; inactive = no such curve, though single readings can be large; an effect the other way counts as inactive or inconclusive. Potency is read from the fitted curve at half-maximal effect.

Each structure is followed by: 2A StopGo, Lassa entry inh, Cruzain inh Det, SARS PLP yeast, Marburg entry inh, NS1 inh, Cruzain noTriton, RE007 growth inh
1. O=C(ONC1=NCCCCC1)c1c(F)cccc1F
    -3%, -24%, 1.1%, -26%, ?, -36%, -9%, -5%
2. CCOc1ccc(NC(=O)CSc2nnc3scc(-c4ccc(Cl)cc4)n23)cc1
    -22%, -21%[46.1 µM], -1.5%, ., 7%[46.1 µM], ., -2%, .
3. Cc1ccc2nc(-c3ccc(NS(=O)(=O)c4ccc(F)c(F)c4)cc3)sc2c1
    -44%, ?, -4.7%, -91%, ?, -61%, -19%, ?
4. CC(C)Oc1ccc(CNS(=O)(=O)c2ccc(-c3cc(C(F)(F)F)on3)s2)cc1
    -17%, 22%[46.1 µM], 0.3%, ., ., ., ?, .
5. COC(=O)Cc1cn(-c2ncc(C(F)(F)F)cc2Cl)c2ccccc12
    0%, 10%, -6.6%, -31%, -6%, -96%, 2%, -25%
6. CC1CCc2nn(CC(=O)Nc3c(F)cc(F)cc3Br)cc2C1 (stereo unspecified)
    -19%, ., -2.9%, -12%, ., -2%, -4%, -2%
7. CC(C)C(=O)N1CCN(c2ccccc2NC(=O)COc2ccccc2)CC1
    ?, ?, ., 0%, -21%, 4%, ., 4%
8. O=C(Nc1ccc(F)cc1)Nc1cc(OCC(F)(F)F)cc(OCC(F)(F)F)c1
    -9%, 18µM*, -7.6%, 9%, 8.9µM*, 1%, -3%, -14%
9. NC1=NC[C@@H](Cc2ccc(O)cc2)N1CCc1cccc(F)c1
    -10%, ., ., -4%, ., 2%, ., -27%
10. O=C(Nc1ccccc1)C1CCN(S(=O)(=O)c2ccc3[nH]c4c(c3c2)CCCCC4)CC1
    -17%, ?, -1.7%, ., ., ., 16µM*, .
11. Cc1noc(C)c1COC(=O)CCN1c2ccccc2Sc2ccccc21
    0%, ?, -4.5%, -5%, ?, 3%, 1%, -12%
12. COC(=O)Cc1c(-c2[nH]c3ccccc3c2CC(=O)OC)[nH]c2ccccc12
    -14%, 17%, ., ., 7%, ., ., -24%
13. COc1cc2c(cc1NC(=O)CC1SC(N3CCCC3)=NC1=O)oc1ccccc12 (stereo unspecified)
    ?, -13%, -4.4%, -3%, ?, -41%, ?, -7%
14. Cc1ccc(N2C(=O)CC3(CC4C=CC3C4)C2=O)cc1 (stereo unspecified)
    15%, 3%, 5.6%, -4%, 11%, -8%, 5%, 5%
15. COc1cc(/C=N/Nc2ccccc2C(F)(F)F)ccc1O
    43%[activator], ., ., 1%, ., 4%, ., 7%
16. CC(CCn1cccn1)NC(=O)CCc1nnc(C2CCCCC2)o1 (stereo unspecified)
    8%, 18%[46.1 µM], ., 1%, -4%[46.1 µM], -2%, ., -6%
17. C=CCNC(=O)c1onc(CSc2ccc(F)c(F)c2)c1C(=O)O
    -6%, ., 6.6%, 2%, ., 0%, -10%, 1%
18. CCOC(=O)c1ccc(NS(=O)(=O)c2c(C)n(C)c(=O)n(C)c2=O)cc1
    0%, ., -1.0%, 5%, ., -6%, -3%, 12%
19. CCC(=O)Nc1cc(OC)c(NC(=O)c2ccccc2)cc1OC
    2%, 6%, -4.9%, -6%, 16%, -3%, -14%, 18%
20. COc1ccc(N2Cc3ccccc3C2)cc1Cl
    20%, ., -0.9%, 1%, ., -6%, ?, -17%

Structures from the list above that have four or more nitrogen atoms:
Each structure is followed by: 2A StopGo, Lassa entry inh, Cruzain inh Det, SARS PLP yeast, Marburg entry inh, NS1 inh, Cruzain noTriton, RE007 growth inh
2. CCOc1ccc(NC(=O)CSc2nnc3scc(-c4ccc(Cl)cc4)n23)cc1
    -22%, -21%[46.1 µM], -1.5%, ., 7%[46.1 µM], ., -2%, .
16. CC(CCn1cccn1)NC(=O)CCc1nnc(C2CCCCC2)o1 (stereo unspecified)
    8%, 18%[46.1 µM], ., 1%, -4%[46.1 µM], -2%, ., -6%

Next compounds
Each structure is followed by: 2A StopGo, Lassa entry inh, Cruzain inh Det, SARS PLP yeast, Marburg entry inh, NS1 inh, Cruzain noTriton, RE007 growth inh
21. COC(=O)c1ccc(CSc2nc3sc(C)c(C)c3c(=O)[nH]2)cc1
    -12%, ., ., 0%, ., -2%, ., 0%
22. CC(C)CC[n+]1ccn(-c2nc3ccccc3nc2[N-]S(=O)(=O)c2ccc(Cl)cc2)c1
    25%, -13%, ., -1%, -10%[46.1 µM], 1%, ., 21%
23. CCCOc1ccc(/C=c2\sc3ncnn3c2=O)cc1
    6%, 3%, ., 0%, -4%[46.1 µM], -1%, ., -3%
24. CCCN1Cc2cccc(C(=O)NCCc3ccccc3)c2C1=O
    4%, -13%[46.1 µM], ., 2%, -1%[46.1 µM], -11%, ., -8%
25. CCCCOc1ccccc1C1C(C(=O)OC)=C(C)N(C)C(C)=C1C(=O)OC
    -29%, ?, -9.0%, -38%, ?, -104%, ?, 31%
26. NNC(=O)CCC(=O)Nc1ccccc1
    -16%, -3%, ., -1%, 19%, 1%, ., 7%
27. Cc1cc(C)cc(OCCOCCn2c(-c3ccc(Cl)cc3)nc3ccccc3c2=O)c1
    0%, -23%[46.1 µM], -3.2%, ., 7.1µM*, ., 3%, .
28. CCOC(=O)c1c(NC(=O)COC(=O)Cc2c[nH]c3ccccc23)sc(C(=O)N(C)C)c1C
    -23%, 19%, ., -10%, 4%[46.1 µM], ., ., 17%
29. Cn1cc(C(=O)NC2CCCCC2)c(=O)c2cc(S(=O)(=O)N3CCOCC3)ccc21
    10%, ., ., 6%, ., 0%, ., -5%
30. CSCC[C@H](NC(=O)COc1ccc(Cl)cc1)C(=O)N1CCC2(CC1)NCCc1[nH]cnc12
    -8%, ., ., 2%, ., -4%, ., -27%
31. O=[N+]([O-])c1ccc(O)c(-c2nc(-c3ccccc3)c(-c3cccs3)[nH]2)c1
    ?, ?, 1.4%, -14%, ?, 3%, ?, -16%
32. CCCS(=O)(=O)c1csc(C(=O)OC)c1N
    8%, -1%[46.1 µM], ., 1%, 25%[46.1 µM], 8%, ., 1%
33. CCN(CC)Cc1nc2c(c(=O)[nH]1)C1(CCCC1)Cc1ccccc1-2
    -18%, -20%, -1.0%, 7%, ?, 6%, -1%, 4%
34. O=C(O)C1=C[C@H](c2coc3ccccc3c2=O)C[C@H](OCCCCO)O1
    21%, ., ., 0%, ., 4%, ., 36%
35. CCn1c(COc2cccc(OC)c2)nnc1SCC(=O)NC1CCCC1
    -4%, 0%, ., ?, -21%[46.1 µM], 21%, ., 10%
36. O=C(NNS(=O)(=O)c1ccc(F)cc1)c1cc(Cl)ccc1O
    1%, ., ., 12%, ., 9%, ., 6%
37. Cc1ccc(S(=O)(=O)NC(=O)c2cc(C)n(-c3ccc(N(C)C)cc3)c2C)cc1
    72%[activator], ., -8.9%, -56%, -2%, 14%, -4%, -5%
38. COc1ccc(CCNC(=O)CCc2cn(C)c3ccccc23)c(OC)c1OC
    -4%, -23%[46.1 µM], ., 1%, ?, -5%, ., 8%
39. COC(=O)Cn1c2nc3ccccc3nc2c2cccc(C)c21
    -7%, 3%[46.1 µM], ., -5%, ?, -10%, ., 6%
40. Cc1ccc(C)c(OCCC(=O)OCC(=O)Nc2ccc(Cl)cn2)c1
    -4%, 21%, ., 0%, -2%[46.1 µM], ., ., -3%
41. Cn1c(C(=O)NCCCN2CCN(c3ccc(F)cc3)CC2)cc2c(=O)n(C)c3ccccc3c21
    -22%, ., ., ., -6%, 3%, ., -6%
42. CCOC(CNc1c([N+](=O)[O-])c(=O)n(C)c(=O)n1C)OCC
    -20%, 2%, -2.7%, -5%, -17%, -8%, -7%, 10%
43. COc1cccc(/C=C2\SC(=S)N(CCCC(=O)Nc3cc(C)on3)C2=O)c1
    14%, -15%[46.1 µM], ., -3%, -3%[46.1 µM], 1%, ., -10%
44. COc1ccc(C(=O)N=C2SC3CS(=O)(=O)CC3N2Cc2ccc(OC)c(OC)c2)cc1 (stereo unspecified)
    -14%, ., ., -1%, ., 0%, ., 1%
45. O=C(Nc1nc2ccccc2[nH]1)C1CCC1
    53%[activator], ., ., 0%, ?, ., ., 3%
46. C(=C1c2ccccc2-c2ccccc21)c1ccccn1
    -2%, -26%, ., ., ?, ., ., -22%
47. C=CCNc1nc(Nc2ccc([N+](=O)[O-])cc2)nc(OCC)n1
    8%, 8%, -5.7%, -8%, ?, -10%, -17%, 6%
48. CCOC(=O)C1=C(c2ccccc2)NC(=S)NC1c1ccc(Cl)cc1 (stereo unspecified)
    ?, ?, ., 0%, ?, -13%, ., -4%
49. CCOc1ccc(N2C(=O)C(c3ccccc3)=C(c3nc4ccccc4s3)C2NC(C)=O)cc1 (stereo unspecified)
    26%, -5%, -3.2%, -23%, 1%, -3%, 19%, ?
50. CCOC(=O)c1c(-c2ncc(C(F)(F)F)cc2Cl)noc1C
    -10%, 2%[46.1 µM], ., 1%, -3%[46.1 µM], -1%, ., 7%
51. CCNC(=S)Nc1ccc(OCC)cc1
    2%, 1%, 3.2%, 0%, 12%, 9%, -3%, -16%
52. O=C(NCCN1CCN(C(=O)c2ccc(F)cc2)CC1)C(=O)NCc1ccccc1
    -14%, 0%, ., 1%, ?, 6%, ., 25%
53. COc1cccc(-n2nnc3c(=O)n(Cc4ccc(C)cc4)cnc32)c1
    0%, 4.1µM*, -1.3%, 1%, ?, -3%, 1%, 13%
54. CCCc1nc2c(nnn2Cc2ccccc2F)c(=O)[nH]1
    ., 12%, -1.6%, 4%, -1%, 6%, 12%, 5%
55. COc1ccc(NC(=O)NCc2cccnc2)cc1
    -14%, ., ., 1%, ., 13%, ., -13%
56. CC1=Nc2cc([N+](=O)[O-])ccc2NC(C)(C)C1
    18%, ., ., -1%, ., 7%, ., -10%
57. COc1cc2c(cc1OC)CN(C(=O)CN1CCN(S(=O)(=O)c3ccccc3)CC1)CC2
    -21%, ., ., -3%, ., -18%, ., 11%
58. COc1c(S(=O)(=O)N2CCCCC2)ccc2c(S(=O)(=O)N3CCCCC3)cccc12
    17%, -30%, ., ., -16%, 7%, ., -12%
59. O=C(CSCc1ccc(Cl)cc1)N1CCN(Cc2ccc3c(c2)OCO3)CC1
    ?, -6%, -2.5%, -12%, 2%, -2%[9.22 µM], 24%, -13%
